Hsc70: Hsc70 inhibitors, probe displacement, primary screen, biochemical, fluorescence polarization (AID 568); Heat shock cognate 71 kDa protein (Homo sapiens); Hsc70 fluorescence polarization, probe displacement; higher % means a stronger effect; strong numbers were not always called active; one-dose displacement, % at 20 µM; IC50 in µM for titrated hits; 83,000 tested, under 10 active;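 active means displacement above 50% without optical interference and an IC50 on retest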;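 further: ATPase domain with a fluorescein-tagged ATP probe; 0% = vehicle and 100% = excess ADP; read after one hour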
WNV protease inh: inhibitors of WNV NS2B-NS3 protease, primary screen, biochemical, fluorogenic substrate; fluorogenic substrate Ex360/Em465; stronger effect = lower value; z-score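 (tested at a level between 10 and 100 µM)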; actives 0.18% (n = 65,000); AID 577, 2007;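 active means z-score at -3 or under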;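 further: score is relative to mean and spread of the compound wells of a plate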
Target sequence (P06935 1371-1501 limits assumed): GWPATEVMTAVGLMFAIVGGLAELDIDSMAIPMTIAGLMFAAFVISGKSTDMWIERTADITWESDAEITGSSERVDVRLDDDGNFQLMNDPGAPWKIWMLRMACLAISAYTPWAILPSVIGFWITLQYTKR
Target sequence (P06935 1502-1679 limits assumed): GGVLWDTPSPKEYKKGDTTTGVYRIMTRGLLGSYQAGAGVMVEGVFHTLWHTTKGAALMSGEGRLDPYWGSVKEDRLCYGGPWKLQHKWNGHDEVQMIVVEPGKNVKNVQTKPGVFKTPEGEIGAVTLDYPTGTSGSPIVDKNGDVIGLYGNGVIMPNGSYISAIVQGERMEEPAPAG
MT1-MMP reporter: inhibitors of MT1-MMP promoter transcription, cell-based, luciferase reporter, luminescence (AID 618) | MT1-MMP promoter luciferase reporter cells, luminescence | actives 0.62% (n = 87,000) | calls from a first round at 10 µM; hits with a dose series show EC50 in µM;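 active means over half of the reporter light lost at 10 µM or EC50 under 50 µM; inactive means the rest and hits that failed the dose series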;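 further: actives suppress MT1-MMP promoter-driven transcription so potencies describe inhibitors; HT1080 fibrosarcoma cells; overnight exposure; toxic or luciferase-blocking compounds were not removed from the actives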
Starred values were filed as active, the others as inactive; i = inactive; . = no result given; + = active, no number. These rows are one share of the data (hit frequency here may not be typical).

SMILES | Hsc70 | WNV protease inh | MT1-MMP reporter
CC1CN(C(=O)C(C)Sc2nc3ccccc3s2)CC(C)O1 (stereo not given) | -2.6% | -0.85 | i
CCC(=O)Nc1ccc(C(=O)Nc2cccc(OC)c2)cc1 | -1.5% | . | i
CCOc1ccc(N2CC(C(=O)NCCCN3CCOCC3)CC2=O)cc1 (stereo not given) | 5.3% | -0.58 | i
Cn1c(NC(=O)C2c3ccccc3Oc3ccccc32)cc(=O)n(C)c1=O | -6.4% | 0.01 | i
COc1cccc(NC(=O)CSc2nc3c(c(-c4ccco4)c2C#N)CCCC3)c1 | -6.3% | -0.08 | i
Cc1nc(N)sc1-c1csc(Nc2ccccc2)n1 | 1.0% | 0.39 | i
CC(=O)C(Sc1nc(N2CCOCC2)nc(N2CCOCC2)n1)C(=O)Nc1ccccc1 (stereo not given) | -3.8% | 2.2 | i
CCCCC(CCC(=O)Nc1ccc(C(=O)OCC)cc1)C(=O)O (stereo not given) | 1.0% | -0.13 | i
O=C(NCc1ccc2c(c1)OCO2)C1CC(c2cccc(Br)c2)=NO1 (stereo not given) | -4.0% | . | i
CCOC(=O)COc1ccc(S(=O)(=O)N2CCN(c3ccccc3F)CC2)cc1 | -0.3% | -0.3 | i
CCOc1ccc(C(=O)NCCCN(CC)CC)cc1 | 4.1% | -0.2 | i
CC(=O)NC1C(=O)Nc2c(C)cc(C)cc21 (stereo not given) | 4.1% | . | i
CCC(=O)Nc1ccccc1-c1nnn(CC(=O)N2c3ccccc3CC2C)n1 (stereo not given) | 5.4% | -0.34 | i
Cc1nc2ccc(S(=O)(=O)NCC(=O)N3CCOCC3)cc2s1 | 2.6% | -0.49 | i
COc1ccccc1N1CCN(c2nc(N)c(C#N)c(CC#N)c2C#N)CC1 | -2.1% | 0.0023 | i
CCOc1ccc(-c2nc(-c3ccccc3C)no2)cc1 | -1.1% | 0.13 | i
CCOc1ccc2[nH]c(=O)c(C(c3nnnn3CC3CCCO3)N3CCc4ccccc4C3)cc2c1 (stereo not given) | 0.8% | -0.75 | i
CCOC(=O)c1ccc(NC(=O)C23CCC(C)(C(=O)O2)C3(C)C)cc1 (stereo not given) | -1.4% | -0.5 | i
O=C(COc1cccc(C(F)(F)F)c1)NCCCN1CCCC1=O | 2.0% | -0.98 | i
CCCCn1c(/N=C/c2ccc3c(c2)OCO3)nc2ccccc21 | 1.6% | . | i
c1ccc(-c2nnc3sc(CN4CCc5ccccc54)cn23)cc1 | -10% | 0.8 | i
Cc1cc(NC(=O)c2ccccc2)ncc1NC(=O)c1ccco1 | 3.2% | 0.17 | i
Cc1c(Cl)cccc1-c1ccc(/C=N/n2cnnc2)o1 | -0.7% | . | i
Cn1c(=O)c2c(nc(Oc3ccc4c(c3)OCO4)n2Cc2ccc(Br)cc2)n(C)c1=O | -1.4% | -0.31 | i
COc1ccc(OC)c(NC(=O)CSc2nnc(Cn3c(=O)sc4ccccc43)n2C)c1 | 2.9% | -1 | i

The list continues:
SMILES | Hsc70 | WNV protease inh | MT1-MMP reporter
Cc1sc2ncn(CCC(=O)O)c(=O)c2c1C | 3.1% | 0.53 | i
Cc1ccc(OCc2nnc(SCCN3CCOCC3)n2C)cc1 | -0.8% | -0.48 | i
Nc1ccc2c(c1)C(=O)C(=O)c1ccccc1-2 | 1.6% | . | +
CS(=O)(=O)N(CC(=O)NC1CCCCCC1)Cc1ccccc1 | -2.3% | -0.63 | i
Cc1cc(=O)oc(C)c1C(=O)NCCCN1C(C)CCCC1C (stereo not given) | 2.6% | -0.0067 | i
Cc1nnc(SCC(=O)NC(=O)NC(C)(C)C)n1N | 3.0% | -0.77 | i
NC(=O)c1c(NC(=O)CN2CCCC2)sc2c1CCCC2 | 1.2% | -1.1 | i
COCC(C)NCc1cccc(OC)c1OC (stereo not given) | -1.7% | . | i
O=C(N1CCN(c2cccc(Cl)c2)CC1)C1(S(=O)(=O)c2ccc(Cl)cc2)CC1 | -1.2% | . | i
COc1ccc(-c2ccc(-c3noc(-c4ccccc4OC)n3)c(OC)n2)cc1 | -90% | 1.4 | i
Cc1ccc2nc3c(cc2c1)c(NC(=O)c1ccccn1)nn3CC(C)C | 4.4% | . | i
O=C(CN(c1ccc(F)cc1)S(=O)(=O)c1ccc2c(c1)OCCO2)NCc1ccccc1 | 8.0% | . | i
COc1ccc(CSc2nnnn2-c2ccccc2)cc1 | 1.6% | . | i
CC12CCC(c3c(C(=O)Nc4nccs4)nn(-c4ccccc4)c31)C2(C)C (stereo not given) | 6.1% | -1.2 | i
CCC(=O)Nc1ccc(NC(=O)CSc2nnnn2CC)cc1C | -7.5% | -0.99 | i
COc1ccc(/C=C2\N=C3CCCCCN3C2=O)cc1OC | 2.5% | . | i
Cc1csc(NC(=O)CSc2nnc(-c3ccc(S(=O)(=O)N4CCCC4)cc3)o2)n1 | -7.1% | -0.31 | i
O=C1CCCc2c1cc(C(=O)NCc1ccco1)c(=O)n2-c1ccc(Cl)cc1 | 2.2% | -0.84 | i
CCCCn1c(SCc2cccnc2)nc2c1c(=O)n(C)c(=O)n2C | -2.0% | -0.2 | i
CCCCOC(=O)C(C)Nc1n[nH]c(=O)[nH]c1=O (stereo not given) | -7.6% | -0.3 | i
COc1ccc(N2CCN(C(=O)c3ccc(C(C)(C)C)cc3)CC2)cc1 | -2.4% | . | i
Cc1cncn1CCc1nc2c3ccccc3nc(=S)n2[nH]1 | -6.2% | 0.3 | i
CCCS(=O)(=O)c1nnnn1-c1cccc(OC)c1 | 4.8% | -0.15 | +
Cc1nn(-c2ccc(C(=O)O)cc2)c(N)c1-c1ccccc1 | 0.8% | 0.2 | i
c1ccc(-c2cn3c(n2)SCC3)cc1 | 0.5% | . | i

Continued.
SMILES | Hsc70 | WNV protease inh | MT1-MMP reporter
COC(=O)C(NC(=O)COc1ccccc1)(Nc1nc2c(s1)CCCC2)C(F)(F)F (stereo not given) | 4.6% | . | i
Cc1cccc(C)c1NC(=O)N1CCC(n2cnc3ccccc32)CC1 | -2.7% | 0.33 | i
Cc1c(NC(=O)CN2C(=O)c3ccccc3C2=O)c(=O)n(-c2ccccc2)n1C | -0.3% | -0.74 | i
CN(C)C(CNC(=O)c1cccs1)c1cccnc1 (stereo not given) | 4.8% | -1.1 | i
CCc1sc(C(=O)N2CCN(S(C)(=O)=O)CC2)cc1Br | 3.8% | 0.28 | i
CCOc1ccccc1NC(=O)CSc1nc2c(c(=O)n1C)SC(C)C2 (stereo not given) | 0.9% | 0.26 | i
FC(F)(F)c1nnc2sc(-c3ccccn3)nn12 | -2.3% | -0.43 | i
CCOc1cccc(-c2nc(C(N)=O)c3[nH]c(=O)n(-c4cccc(Cl)c4)c3n2)c1O | 4.5% | -0.36 | i
C=CCn1c(=O)c2ccccc2n2c(SC(C)C(=O)Nc3nc(-c4ccccc4)cs3)nnc12 (stereo not given) | -5.8% | -0.85 | i
CC12CCC3(CO)COC(c4ccccc4O1)C2C3 (stereo not given) | -7.3% | -0.1 | i
CCCCCCn1cnc2c(c1=O)c1nc3ccccc3nc1n2Cc1cccs1 | 3.4% | 0.97 | i
O=c1c(/C=C(\O)c2ccccc2)nc2ccccc2n1-c1ccccc1 | 21% | . | i
CC(=O)Nc1ccc(C(=O)CSc2nc3ccccc3n2CC(=O)N2CCCC2)cc1 | -1.3% | 1.9 | i
Cc1c(N=CC=Nc2c(C)n(C)n(-c3ccccc3)c2=O)c(=O)n(-c2ccccc2)n1C | 2.2% | -0.52 | i
CCOC(=O)N1CCN(C(=O)Cn2ncc3ccccc32)CC1 | 4.3% | 0.78 | i
CCCCn1c(=O)[nH]c(=O)c2c1nc(-c1ccc(-c3ccccc3Br)o1)n2CCOC | -14% | . | i
COc1ccccc1C(=O)Nc1ccccn1 | -5.5% | -0.4 | i
CCN=C1NN=C(c2ccc(C)cc2)CS1 | -7.3% | . | 2µM*
CCCN1C2=NS(=O)(=O)CCN2c2ccccc21 | 0.6% | 2.2 | i
O=C1CC(c2cccnc2)c2cc3c(cc2N1)OCO3 (stereo not given) | 0.1% | -0.19 | i
Cc1ccccc1NC(=O)c1cnc2ccccn2c1=O | 4.1% | 0.1 | 2.1µM*
COc1ccc(N2C(=O)C(Cl)=C(N3CCCC3)C2=O)cc1 | 1.4% | -0.95 | i
Cn1c(-n2c(CCN3C(=O)c4ccccc4C3=O)nc3ccccc3c2=O)nc2ccccc21 | -1.3% | -0.13 | i
O=C(CCN1CCOCC1)Nc1ccc2c(c1)CCC2 | -1.5% | -0.5 | i
CCOCC(=O)Nc1cccc(C(=O)OCC)c1 | 2.0% | 1.3 | i

Next entries follow.
SMILES | Hsc70 | WNV protease inh | MT1-MMP reporter
CCCc1nc(SCC(=O)Nc2cc(Cl)ccc2OC)c2c(=O)n(C)c(=O)n(C)c2n1 | 1.8% | 0.2 | i
Cc1ccc(S(=O)(=O)Nc2c(C)n(C)n(-c3ccccc3)c2=O)cc1C(=O)NCc1ccccn1 | 0.6% | 1.3 | i
Cc1ccc(NC(=O)CN(C)S(=O)(=O)c2cccc3nsnc23)cc1 | 5.7% | -0.03 | i
CCOC(=O)N1CCC(NS(=O)(=O)c2cc(Br)cnc2N)CC1 | 5.5% | 0.07 | i
O=C(Cc1ccccc1)N1CCC(c2nc(-c3ccc(F)cc3)no2)CC1 | 2.2% | -0.79 | i
COc1ccc(C)cc1S(=O)(=O)N1CCC(C)CC1 | 0.0% | -0.45 | i
CCOC(=O)N1CCN(C(=O)c2c(-c3ccccc3)noc2C)CC1 | 1.1% | 0.86 | i
CC(C)(C#N)NC(=O)c1ccco1 | -0.5% | 1.8 | i
Cn1c(CCNC(=O)OC(C)(C)C)n[nH]c1=S | 20% | 0.91 | i
O=C(NC1CCCCC1)c1noc2c1CCCCC2 | -3.7% | -0.84 | i
CCOc1ccc(Cc2nc(-c3nonc3N)no2)cc1OCC | -0.9% | -0.89 | i
CCOc1cc(-c2noc(-c3cccnc3)n2)ccc1OC | -1.6% | 0.37 | i
Cc1occc1-c1nnc(SCC(=O)Nc2ccc3c(c2)OCO3)n1CC1CCCO1 (stereo not given) | 4.9% | 1.7 | i
CC(=O)Nc1nc(SCCCc2ccccc2)n[nH]1 | -6.4% | -0.33 | i
O=C(Nc1cc(C(F)(F)F)ccc1N1CCOCC1)c1ccc[n+]([O-])c1 | -2.2% | . | i
Cc1ccc(C2NC(=O)NC3=C2CCc2ccccc23)cc1 (stereo not given) | 1.3% | -0.71 | i
CCCS(=O)(=O)N1CCCC(C(=O)NCCN2CCC(Cc3ccccc3)CC2)C1 (stereo not given) | 1.9% | -0.2 | i
CC1(C)Cc2c(sc3nc(-c4ccccc4)n(N)c(=O)c23)CO1 | 4.5% | . | i
COC(=O)CSc1nnc(-c2ccc(S(=O)(=O)N3CCCC3)cc2)n1C | -3.3% | . | i
CCCCOc1ccc(S(=O)(=O)Nc2ccc(NC(C)=O)cc2)cc1 | -5.0% | . | i
Cc1cc(=O)n2[nH]c(C)c(-c3ccc(Cl)cc3)c2n1 | 2.0% | -0.37 | i
CCOC(=O)C1CCN(C(=O)Nc2ccc3oc(C)nc3c2)CC1 | -3.1% | -0.74 | i
O=C(O)c1oc2ccccc2c1CSc1ccccn1 | 2.1% | -1.3 | i
Cc1nc(Sc2cccn2C)c(C(F)(F)F)c(=O)[nH]1 | 0.5% | 0.00046 | i
CSc1nc(N2CCOCC2)c2ccccc2n1 | 1.6% | -0.38 | i

Single records, as listed above:
CC(=O)Nc1nc(SCCCc2ccccc2)n[nH]1 reads Hsc70 = -6.4%; WNV protease inh = -0.33; MT1-MMP reporter = i
Cc1occc1-c1nnc(SCC(=O)Nc2ccc3c(c2)OCO3)n1CC1CCCO1 (stereo not given) reads Hsc70 = 4.9%; WNV protease inh = 1.7; MT1-MMP reporter = i
O=C(O)c1oc2ccccc2c1CSc1ccccn1 reads Hsc70 = 2.1%; WNV protease inh = -1.3; MT1-MMP reporter = i

Five entries picked at random from the list so far:
SMILES | Hsc70 | WNV protease inh | MT1-MMP reporter
CCOC(=O)N1CCN(C(=O)c2c(-c3ccccc3)noc2C)CC1 | 1.1% | 0.86 | i
CC1(C)Cc2c(sc3nc(-c4ccccc4)n(N)c(=O)c23)CO1 | 4.5% | . | i
Cc1ccc(NC(=O)CN(C)S(=O)(=O)c2cccc3nsnc23)cc1 | 5.7% | -0.03 | i
Cc1occc1-c1nnc(SCC(=O)Nc2ccc3c(c2)OCO3)n1CC1CCCO1 (stereo not given) | 4.9% | 1.7 | i
CCCS(=O)(=O)N1CCCC(C(=O)NCCN2CCC(Cc3ccccc3)CC2)C1 (stereo not given) | 1.9% | -0.2 | i

The list continues.
SMILES | Hsc70 | WNV protease inh | MT1-MMP reporter
COc1ccc(S(=O)(=O)N2CCOCC2)cc1C(=O)Nc1cc(C)on1 | 1.9% | 0.22 | i
CCc1nnc(NC(=O)C2CCC2)s1 | 1.7% | 0.46 | i
CCc1nnc(NC(=O)CSc2nnnn2-c2cccc(C(=O)OC)c2)s1 | 7.0% | 0.31 | i
CCOc1ccc(NC(=O)CN(C)c2nnnn2-c2ccccc2)cc1OCC | 2.2% | -1.1 | i
CN1CCN(CC(=O)C23CC4CC(CC(C4)C2)C3)CC1 | -3.3% | -1 | i
Cc1nc2cc(S(=O)(=O)N(C)C)ccc2n1-c1ccccc1 | -4.8% | -0.17 | i
CCC1CCCCN1C(=O)CN1C(=O)CSC1=O (stereo not given) | 5.5% | . | i
CCC(C)NC(=O)CCS(=O)(=O)c1ccc(Br)s1 (stereo not given) | 6.3% | -0.45 | i
